# GIV Gai3 FP: blocks GIV peptide binding to rat Galpha-i3 | P08753 | Galpha-i3/FITC-GIV peptide fluorescence polarization, 90 min; hits give low values; scaled: aluminum fluoride 0%, vehicle 100% | percent of control (FP), % (concentration not given with the values) | actives 0.42% (n = 210,000) | AID 1224905;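 active means replicate mean at 85% of control or lower, very high polarization wells dropped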;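 further: wells of about 15 µL received 100 nL stock; the first replicate is given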
# Target sequence (P08753 whole entry, looked up): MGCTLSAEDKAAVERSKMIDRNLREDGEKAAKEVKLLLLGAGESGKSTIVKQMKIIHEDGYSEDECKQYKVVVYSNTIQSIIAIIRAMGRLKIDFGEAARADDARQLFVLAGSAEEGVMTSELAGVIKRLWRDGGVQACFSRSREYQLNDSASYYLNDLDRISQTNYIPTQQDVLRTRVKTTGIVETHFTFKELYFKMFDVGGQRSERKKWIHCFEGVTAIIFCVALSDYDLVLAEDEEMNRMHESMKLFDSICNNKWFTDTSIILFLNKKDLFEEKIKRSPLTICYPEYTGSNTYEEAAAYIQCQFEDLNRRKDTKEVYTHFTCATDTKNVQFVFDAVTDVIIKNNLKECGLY
# An asterisk follows results filed as active.
molecule | GIV Gai3 FP
O=C1C2=C(C(c3ccccc3)=NCCN2)C(c2cccc([N+](=O)[O-])c2)N1c1ccccc1 (stereo not given) | 111
Cc1ccc2c(c1)Oc1cc(Cl)c(S(=O)(=O)N3CCSCC3)cc1C(=O)N2 | 106
CC(=O)Nc1ccc(N(CC(O)Cn2c3ccccc3c3ccccc32)S(=O)(=O)c2ccc(C)cc2)cc1 (stereo not given) | 114
CCOc1cccc(C2N(c3ccccc3)N=C(C(C)=O)N2c2ccc(Cl)cc2)c1OCc1ccccc1Cl (stereo not given) | 105
CC(C)(C)c1ccc(OS(=O)(=O)O)c(CN2CCCCC2)c1 | 104
O=C(NCCCN1CCCC1=O)c1ccc2c(=O)n(-c3cc(C(F)(F)F)ccc3Cl)c(=S)[nH]c2c1 | 109
Cc1c(C(=O)N(C)Cc2ccccc2)sc2ncn(CC(=O)Nc3cccc(C(F)(F)F)c3)c(=O)c12 | 104
COc1ccc(NC(=O)Nc2nnc(SCC(=O)Nc3cc(OC)ccc3OC)s2)cc1 | 107
CCOC(=O)C1=C(C)OC(N)=C(C#N)C1c1ccc(OC)c(OC)c1 (stereo not given) | 112
N#CC1=C(N)N(c2ccc(F)cc2)C2=C(C(=O)CCC2)C1c1ccc(Br)s1 (stereo not given) | 120
CC(C)c1cc(C2CCCN2Cc2cn[nH]c2-c2cccs2)on1 (stereo not given) | 104
CCN1CCN(CC2CCN(S(=O)(=O)Cc3c(F)cccc3Cl)CC2)CC1 | 109
CCOC(=O)C1=C(O)/C(=C/c2ccc(O)cc2)SC1=Nc1ccc([N+](=O)[O-])cc1 | 104
COc1ccc(CC(=O)N2CCc3c(c(C(=O)N4CCCC(C(=O)N5CCCC5)C4)nn3C)C2)cc1 (stereo not given) | 102
COc1cccc(NS(=O)(=O)c2cc(C(=O)N3CC(C)CC(C)C3)ccc2NCCc2ccc(OC)c(OC)c2)c1 (stereo not given) | 104
COc1ccc(CCNC(=O)CCCn2c(SCC(=O)NC3CCCC3)nc3ccccc3c2=O)cc1OC | 115
Cc1ccc(S(=O)(=O)NCc2ccc3c(c2)CCN3C(=O)c2ccc(F)cc2)c(C)c1 | 100
O=C1C(Nc2ccccc2)=CC(c2ccc(Cl)cc2)N1c1ccccc1 (stereo not given) | 109
Nc1cc(N2CCOCC2)c2nonc2c1[N+](=O)[O-] | 98
N#CC1=CN(c2ccccc2Br)c2ccccc2S1(=O)=O | 98
O=C(CCC1CCCC1)N1CCc2nc[nH]c2C1 | 103
CC(C)c1ccc(S(=O)(=O)Nc2ccc3nncn3n2)cc1 | 105
N#CC1=C(N)N(c2ccc(Cl)cc2)C2=C(C(=O)CCC2)C1c1cc(Br)cs1 (stereo not given) | 109
Cc1sc(C)c(S(=O)(=O)Nc2ccccc2Cl)c1-c1cc(C(F)(F)F)on1 | 101
Cc1ccc(C(=O)ONC(=Nc2ccccc2C)c2nonc2N)cc1 | 105
COc1cccc(C2C3=C(CC(C)(C)CC3=O)OC3=C2C(=O)CC(C)(C)C3)c1OCc1ccc(Cl)cc1Cl | 117
COc1ccc(NC(=O)c2ccc(=O)n(Cc3ccc(F)cc3)c2)c(OC)c1 | 107
Cc1oc(-c2ccc(C(C)C)cc2)nc1Cn1c(=O)c2cccnc2n(-c2ccccc2)c1=O | 106
O=C1CC(n2nc(-c3ccccc3)n(-c3ccccc3)c2=S)C2COC1O2 (stereo not given) | 104
CC(C)c1ccc2c(c1)c1c3n2CCN(CCC#N)C3CCC1 (stereo not given) | 112
CCOC(=O)c1sc2nc(SCC(=O)NCc3ccco3)n(Cc3cccc(Br)c3)c(=O)c2c1C | 106
COC(=O)c1ccc(C2Oc3ccc(Cl)cc3C3CC(c4ccc(F)cc4)=NN32)cc1 (stereo not given) | 99
CC(=O)N(Cc1ccc(F)cc1)Cc1ccc2c(c1)CN(C(=O)Cc1ccc(C)cc1)CCO2 | 101
CC(C)Nc1ncnc2c1cnn2-c1cccc(Cl)c1 | 94
CC(C)CNC(=O)c1cccn2c(-c3ccc(F)cc3)nnc12 | 103
CCNC(=O)c1ccc2c3c(onc13)-c1ccccc1C2=O | 118
COc1ccc(NC(=O)c2nnc(C3CCN(S(=O)(=O)Cc4ccccc4)CC3)s2)cc1 | 101
COc1ccc(N2CCN(c3ncc(S(=O)(=O)c4ccc(C)cc4)c(N)n3)CC2)cc1 | 106
CC1C(=O)N(c2ccccc2)C(=N)N1c1nc(N(C)C)nc(N(C)C)n1 (stereo not given) | 108
O=C(Nc1ccc(Cl)cc1)Nc1nnc(CC(=O)N2CCOCC2)s1 | 102
CC(=NCc1ccco1)c1c(C(F)(F)F)[nH]n(-c2nc3ccccc3s2)c1=O | 102
CCCCCCCCCCNS(=O)(=O)c1cc2c(c([N+](=O)[O-])c1)-c1c(cc(S(=O)(=O)NCCCCCCCCCC)cc1[N+](=O)[O-])C2=O | 102
CCc1ccc(S(=O)(=O)N2CCC3(CC2)NCCN=C3NCc2ccc(C)cc2)cc1 | 103
CC1(C)OC2C(COC(=O)c3ccccc3)OC(n3ccc(=O)[nH]c3=O)C2O1 (stereo not given) | 105
Cc1ccc(Cc2nc3ccccc3nc2SCC(=O)NCC2CCCO2)cc1 (stereo not given) | 112
COc1ccc(N2CCN(S(=O)(=O)c3ccc(F)c(C(=O)Nc4ccc(Br)cc4)c3)CC2)cc1 | 109
O=C(CSc1nc2ccc(NC(=O)c3ccc(Cl)c(Cl)c3)cc2s1)NCC1CCCO1 (stereo not given) | 112
CCOc1ccc2nc(SC3CC(=O)N(c4ccc(OC)cc4)C3=O)nc(C)c2c1 (stereo not given) | 108
O=C(Nc1nc2ccccc2s1)c1ccc(S(=O)(=O)N2CCc3ccccc3C2)cc1 | 102
CCN(CC)c1ncnc2sc(C(=O)Nc3cc(Cl)c(OC)cc3OC)c(C)c12 | 105
COc1ccc(/C=C2/c3ccccc3-c3nc4ccccc4cc32)cc1OC | 104
O=C(c1ccc(F)cc1)N1CCc2cc(CNS(=O)(=O)c3cccc(Cl)c3)ccc21 | 105
COC(=O)C1=C(C)OC(N)=C(C#N)C1c1ccc(Cl)c(Cl)c1 (stereo not given) | 112
COC(OC)C12c3ccccc3C(c3ccccc31)C1C(=O)N(c3ccc(C)cc3)C(=O)C12 (stereo not given) | 110
CCCCc1ccc(-n2sc3c(c2=S)-c2cccc(C)c2NC3(C)C)cc1 | 117
CCOc1ccc(NC(=O)c2cc3c(C)nn(-c4ccc(F)cc4)c3s2)cc1 | 107

# (further entries)
molecule | GIV Gai3 FP
Cc1ccccc1N=C(NOCc1ccc(Cl)cc1Cl)c1nonc1N | 111
Cc1nc2sccn2c(=O)c1NC(=O)CC(C)(C)C | 103
O=C1Nc2ccccc2C12CCN(S(=O)(=O)c1ccccc1F)C2 (stereo not given) | 102
Cc1ccccc1N1C(=O)C2C(c3ccccc3)CCC(c3ccccc3)C2C1=O (stereo not given) | 105
O=S(=O)(c1ccc(F)cc1)N1CCC2(CC1)NCCN=C2NCc1ccccc1F | 101
COc1ccc2c(=S)c(-c3ccccn3)c(C)oc2c1 | 106
COc1ccc(C2/C(=C(\O)c3ccc(C)cc3)C(=O)C(=O)N2c2nncs2)cc1OC (stereo not given) | 113
N=c1sc(/C=C2\C=c3ccccc3=NC2=O)c(O)n1-c1ccc2c(c1)OCO2 | 103
COc1ccc(OC)c(NS(=O)(=O)c2ccc3c(c2)-c2oncc2CO3)c1 | 108
O=C1CSC(c2cn(-c3ccccc3)nc2-c2cc3ccccc3oc2=O)N1Cc1ccco1 (stereo not given) | 95
CCOc1ccc(NC(=O)CSc2nc(NCC3CCCO3)c3ccccc3n2)cc1 (stereo not given) | 109
CC1(C)CC(=O)C2=C(C1)c1c(ccc3ccccc13)NC2c1cc(Br)ccc1O (stereo not given) | 118
CC1(C)CC(=O)C2=C(C1)OC1=C(C(=O)CC(C)(C)C1)C2c1ccc(OCc2ccccc2F)cc1 | 103
CCOC(=O)C1=NN(c2cccc(Cl)c2)C2C(=O)N(c3ccccc3)C(=O)C12 (stereo not given) | 106
Cc1[nH]nc2c1C(C(=O)c1cc3ccccc3o1)CC(=O)N2 (stereo not given) | 105
O=C(CSc1nn2c(SCC(=O)Nc3nccs3)nnc2s1)Nc1nccs1 | 106
CS(=O)(=O)N1CC(C(=O)NCc2ccccc2)Oc2ccccc21 (stereo not given) | 104
O=C1c2cc(S(=O)(=O)N3CCCCC3)cc([N+](=O)[O-])c2-c2c1cc(S(=O)(=O)N1CCCCC1)cc2[N+](=O)[O-] | 109
CC(C)c1ccc(NC(=O)CSc2ncccc2C(=O)NCc2ccc(Cl)c(Cl)c2)cc1 | 104
O=C(CC(SCc1ccco1)c1ccc(Cl)cc1)c1ccco1 (stereo not given) | 107
COc1ccccc1-c1cc2n(C)c(C)c(CCC(=O)NCc3ccc4c(c3)OCO4)c(=O)n2n1 | 106
CCCNC(=O)CSc1nc2ccccc2nc1Cc1ccccc1OC | 103
CC(C)(C)C1=CC2(C=C(C(C)(C)C)C1=O)Nc1ccccc1OC2c1ccccc1 (stereo not given) | 110
Cc1ccc(C(=O)N2N=C(C(F)(F)F)CC2(O)c2ccncc2)cc1 (stereo not given) | 112
CCOC(=O)C(=O)N1c2ccc(OCC)cc2-c2c(ssc2=S)C1(C)C | 104
O=C(c1ccc(-c2nc(-c3ccc(F)cc3)no2)cc1)N1CCCC1 | 109
Cn1c(=O)c2c(nc3n(Cc4ccccn4)c(-c4ccc(Br)cc4)cn23)n(C)c1=O | 107
COc1ccc2oc(=Nc3ccc(C(=O)c4ccccc4)cc3)c(C(N)=O)cc2c1 | 102
O=C(CCC1CCCC1)Nc1nnc2n1CCCS2 | 100
CS(=O)(=O)N1CCN(c2ncnc3c2nnn3Cc2ccccc2)CC1 | 103
O=C(CCc1nc(CSc2nc3ccccc3o2)no1)Nc1ccc(F)cc1F | 108
O=[N+]([O-])c1cc(S(=O)(=O)Nc2ccc3oc4c(c3c2)CCCC4)ccc1Cl | 108
CCOC(=O)CSc1nc(NCc2ccco2)c2ccccc2n1 | 103
CCOc1cc(-c2nc3sc4c(c3c(=O)[nH]2)CCCC4)ccc1OCCOc1ccc(Br)cc1 | 103
Cc1cccc(Nc2nc3nonc3nc2N2CCCCCC2)c1C | 100
COc1ccc(C2SCCN2S(=O)(=O)c2ccc(F)cc2)cc1OC (stereo not given) | 108
CCOc1ccccc1C(=O)NCCOc1ccc(-c2ccc(C)cc2)nn1 | 100
O=C(Nc1ccc(F)c(Cl)c1)C1CCC(CNS(=O)(=O)c2cccc3cccnc23)CC1 (stereo not given) | 102
Cc1ccc(CNS(=O)(=O)c2cc(-c3ccc(=O)[nH]n3)cc(C)c2C)cc1 | 101
Cc1c(C(=O)N2CCN(C)CC2)sc2ncnc(N3CCN(c4ccccc4F)CC3)c12 | 106
CCC(NC(=O)c1cn2c(n1)CCCC2)c1cccs1 (stereo not given) | 104
O=C(CCc1nc(CSc2nc3ccccc3s2)no1)Nc1ccc2c(c1)OCO2 | 108
CCc1onc(C)c1C1CCCN1Cc1cccc(F)c1 (stereo not given) | 105
COc1cc(NC(=O)CSc2nc3ccccc3n2S(=O)(=O)c2ccccc2)cc(OC)c1OC | 105
COc1ccc(NS(=O)(=O)c2c(C)nn(-c3ccc(-c4ccccc4)nn3)c2C)cc1OC | 101
Cc1c(-c2noc(C(=O)N3CCC(C)CC3)n2)oc2ccccc12 | 96
Cc1nn2c(SCC(=O)Nc3ccc(F)cc3)nnc2[nH]c1=O | 99
CCCCCCCCc1cnc(-c2ccc(OCCCCCC)cc2)nc1 | 113
CCN1CCCc2cc(C(=O)N3CCC4(CC3)OCCO4)sc21 | 98
Cc1cccc(C)c1NC(=O)c1cc(S(=O)(=O)N2CCN(c3ccccc3)CC2)ccc1F | 111
Cc1ccc(-c2nc(C3CCN(C(=O)c4cc(C)cc(C)c4)CC3)no2)cc1 | 103
Cc1nc(-c2cc(S(=O)(=O)N3CCN(c4ccccc4)CC3)c(C)s2)sc1C | 102
Cc1ccc(-c2nc3ccccc3c3nnc(SC(C)C(=O)NCC4CCCO4)n23)cc1 (stereo not given) | 101
CCOc1ccc(S(=O)(=O)N2CCN(c3cccc(C)c3C)CC2)c2cccnc12 | 111
COCCNC(=O)c1ccc2c(=O)n(Cc3ccco3)c(SCC(=O)Nc3ccc(C)c(Cl)c3)nc2c1 | 120
CS(=O)(=O)Nc1ccc(-c2noc(-c3cncc(Br)c3)n2)cc1 | 103

# High-throughput results as filed in PubChem BioAssay.

# This is a subset (hit frequency here may not be typical).
